VACV mCherry inh – vaccinia inhibition (mCherry reporter) | Vaccinia virus mCherry reporter infection, fluorescence; about a quarter of the inactives have no number | AID 720579 | actives 0.63% (n = 310,000) | Potency, µM (highest dose often 36.5 µM), inactives show at the highest dose activity change, negative = inhibition, hits mostly inhibitors; active = well fitted inhibition curve with a large enough effect; inconclusive = small, poorly fitted or top-dose-only effect; inactive = no such curve, though single readings can be large or run the other way; tested in A549 cells; further: nearly all actives have a fitted effect of over 35% in size; inactives centre near -10
VACV Venus inh – inhibitors of vaccinia virus (Venus reporter) | Vaccinia virus Venus reporter expression, fluorescence | Potency, µM (series often up to 36.5 µM), for the others: at the highest dose activity change, negative = inhibition, hits mostly inhibitors | actives 0.46% (n = 330,000) | AID 720580; active means well fitted inhibition curve with a large enough effect; inconclusive means small, poorly fitted or top-dose-only effect; inactive means no such curve, though single readings can be large or run the other way; tested in A549 cells; further: nearly all actives have a fitted effect of over 30% in size; inactives centre near -10
An asterisk follows results filed as active; i = inactive; ? = inconclusive; . = not tested or not shown; & = joins results of further samples; [ ] = another dose, or the depositor's remark. On the % scale 0 is the no-effect control and ±100 the full control effect; potency means the concentration at half of the fitted maximal effect.

Values in the order – VACV mCherry inh	VACV Venus inh
- Cc1cc(C)cc(NC(=S)NCC2CCCO2)c1 (stereo not given)
  .	-17%
- CCn1c(=O)c2cc(C(=O)N(C)c3cc(C)ccc3C)sc2c2ccccc21
  -12%	-10%
- CCOC(=O)C1=C(N)N2C(=O)CSC2=C(C(=O)OC)C1
  .	-19%
- Cc1ncc(CN2CCN(CCc3ccccc3)C(CCO)C2)s1 (stereo not given)
  0%	-12%
- CCOC(=O)c1ccccc1NC(=O)CN1C(=O)CC(c2ccccc2)Sc2ccccc21 (stereo not given)
  -7%	-16%
- Cc1ccc(S(=O)(=O)CCC(=O)NCCN2C(=O)S/C(=C/c3ccc(F)cc3)C2=O)cc1
  -10%	-19%
- O=C(N/N=C/c1ccc2c(c1)OCCO2)c1ccncc1
  -10%	-9%
- N#Cc1nc(COc2cccc(Cl)c2)oc1N1CCCC1
  -19%	-3%
- CCOC(=O)[C@H]1[C@H]2COc3ccc(Br)cc3[C@@H]2N2C(=O)CN(Cc3ccc(Cl)cc3)C(=O)[C@@]12C
  -12%	-25%
- CSc1nc2ccccc2cc1/C=C(\C#N)c1cccc(C)c1
  ?	-26%
- COc1cccc(CNC(=O)Cn2c(=O)oc3ccccc32)c1OC
  -14%	-11%
- CCc1ccc(NC(=O)C2CCN(c3nnc(-n4c(C)ccc4C)s3)CC2)cc1
  -21%	-16%
- CN(Cc1ccccc1)c1nc2c(c(=O)[nH]c(=O)n2C)n1CCSc1nc2ccccc2[nH]1
  -19%	-18%
- CCc1ccc2nc(N(CCCN(C)C)C(=O)c3ccc(C(=O)c4ccccc4)cc3)sc2c1
  -24%	-13%
- Cc1c(C(=O)NCc2c(F)cc(F)cc2F)oc2ccc(S(=O)(=O)N3CCOCC3)cc12
  -17%	-8%
- CC(Cc1ccccc1)NCC(=O)Nc1cc(N(C)C)nc2ccccc12 (stereo not given)
  ?	-20%
- COc1ccc(N2CCN(C(=O)C3Cc4ccccc4CN3C(=O)c3ccco3)CC2)cc1 (stereo not given)
  i	-13%
- CCN(C(=O)COc1cccc(-n2cnnn2)c1)C1CCS(=O)(=O)C1 (stereo not given)
  -3%	-1%
- CCOC(=O)CSC1=Nc2ccccc2C2=NC(CC(=O)NCc3ccc4c(c3)OCO4)C(=O)N12 (stereo not given)
  -12%	-14%
- CCOC(=O)C1C2C=CC3(CN(c4ccccc4CC)C(=O)C13)O2 (stereo not given)
  -9%	8%
- Nc1c(C(=O)c2cccs2)sc2nsc(SCCN3CCCCC3)c12
  -7%[7.34 µM]	-6%[7.34 µM]
- O=C(CN(Cc1ccc(F)cc1)C(=O)CCC(=O)Nc1nccs1)NCc1ccc(F)cc1
  i	-1%
- Cc1ccc(C(=O)CCC(=O)OCC(=O)NNC(=O)c2ccc([N+](=O)[O-])cc2)cc1
  -3%	-10%
- O=Cc1ccc(-c2cccc(C(=O)O)c2)o1
  i	-7%
- Cc1ccc2nsnc2c1S(=O)(=O)N1CCN(C)CC1
  -29%	11%
- Cc1cccc2nc(CSc3nc4ccc([N+](=O)[O-])cc4[nH]3)c(Br)n12
  ?	-30%
- CCOc1ccc(C(=O)Nc2cc(=O)n(C)c(=O)n2C)cc1
  -11%	-3%
- CCN(CC)C(=O)c1[nH]cnc1C(=O)N[C@@H](CCCCNC(=O)OC(C)(C)C)C(=O)OC(C)(C)C
  i	-14%
- Cc1cccc(N2CCN(S(=O)(=O)c3cccc4nonc34)CC2C)c1 (stereo not given)
  -17%	-7%
- COc1ccc(C2C(C(=O)NCc3ccccc3)=C(C)Nc3ncnn32)cc1OC (stereo not given)
  .	-6%

The list goes on.
Values in the order – VACV mCherry inh	VACV Venus inh
- COCCCn1c(=O)c2sccc2n2c(CCCC(=O)Nc3cccc(OC)c3)nnc12
  -11%	-9%
- C=CCN(CC=C)C(=O)COC(=O)c1ccc(Sc2ncn[nH]2)c([N+](=O)[O-])c1
  -14%	-6%
- CCn1nnc(NC(=O)c2sc3ccccc3c2Cl)n1
  .	-17%
- CCOc1ccc(/C=N/NC(=O)Cc2csc(Nc3cccc(C(F)(F)F)c3)n2)c(OCC)c1
  -10%[1.46 µM]	?
- COC(=O)c1ccc(=O)n(-c2ccc(OC)cc2)c1
  .	-5%
- O=c1c(-c2ccco2)[n+]([O-])c2ccccc2n1OCc1ccccc1[N+](=O)[O-]
  -7%	-2%
- COc1ccc(NC(=O)CN(C)C(=O)c2ccc(=O)[nH]c2)cc1
  -14%	0%
- COc1cc2c(cc1OC)C(C(=O)N1CCCC1)C(c1ccccc1F)N(C)C2=O (stereo not given)
  -11%	-8%
- CCn1cc(CN2CCN(Cc3ccc(OC)c(C)c3C)C(CCO)C2)c(C)n1 (stereo not given)
  i	-17%
- CCCN(CC(=O)Nc1ccc(F)c(F)c1F)C(=O)CCc1nc2ccccc2c(=O)[nH]1
  -8%	-7%
- Cc1cc(OCC(O)CN2CCN(c3cccc(Cl)c3)CC2)ccc1Cl (stereo not given)
  -18%	-3%
- C=CCOc1c(CNn2nnnc2N)cccc1OC
  .	-1%
- O=C(C1CCC(Cn2c(=S)[nH]c3ccccc3c2=O)CC1)N1CCN(c2ccccc2)CC1 (stereo not given)
  ?	-29%
- Cc1ccc(C)c(S(=O)(=O)Nc2ccc(O)c(C(=O)O)c2)c1
  7%	-4%
- NC(Cc1ccccc1)c1csc(Nc2nccc(C(F)(F)F)n2)n1 (stereo not given)
  ?	?
- COc1ccc(OC)c(NC(=O)COC(=O)Cc2ccc(-c3ccccc3)cc2)c1
  -14%	-2%
- CCOc1ccc(OCC(=O)Nc2ccc(OC)cc2)cc1
  i	-14%
- CC(C)C[C@H]1CN=C(N(C)C)N1CC1CCCC1
  i	-17%
- CCN1CCSc2ccc(C(=O)NCc3cc(Br)ccc3OC)cc21
  ?	-24%
- N/C(Cc1ccc([N+](=O)[O-])cc1)=N\OC(=O)COc1ccccc1Cl
  -12%	4%
- Cc1ccc(NC(=O)Cn2c(SCc3cccc(F)c3)nc3ccncc32)c(C)c1
  -7%	2%
- Cc1ccc(-n2cnnn2)cc1Cl
  0%	-3%
- NC(=O)c1ccsc1NC(=O)c1cc(=O)c2ccccc2o1
  i	-15%
- CCOC(=O)C1=CCN(S(=O)(=O)c2ccccc2Br)C1c1cccc(C)c1 (stereo not given)
  28%	5%
- O=C(O)c1cc(-c2ccc(-c3c(-c4ccc5c(c4)OCO5)noc3-c3ccsc3)cc2)nc2ccccc12
  -14%	?
- CCNc1nc(NC(C)C)nc(N(C#N)CC(=O)OC)n1
  -15%	-11%
- Fc1ccccc1C1c2cccn2CCN1C(=S)Nc1cccc(Br)c1 (stereo not given)
  -6%	-13%
- COc1ccc2nc(SCC(=O)N3CCCCC3)c(C#N)cc2c1
  i	-17%
- Nc1nc(-c2cccs2)c(CC(=O)O)s1
  i	1%
- Cc1cc(C(=O)COC(=O)c2cccc(S(=O)(=O)N(C)C)c2)c(C)n1CC1CCCO1 (stereo not given)
  i	-15%

Continuation:
Values in the order – VACV mCherry inh	VACV Venus inh
- COC(=O)Oc1ccccc1C(=O)O
  i	0%
- OCc1ccccc1O[C@@H]1O[C@H](CO)[C@@H](O)[C@H](O)[C@H]1O
  -8%	-5%
- COc1ccc(OCC(=O)N(C)Cc2ccccc2)cc1
  .	-8%
- O=C(CN1CCOCC1)Nc1ccc2c(c1)OCCO2
  i[7.34 µM]	0%[7.34 µM]
- O=C(COCc1cc(-c2ccc3c(c2)OCO3)on1)Nc1cccnc1Cl
  -21%	-18%
- COc1ccc(CNC(=O)c2ccc(CNc3c(NC4CCCCC4)c(=O)c3=O)cc2)cc1
  -7%	1%
- Cc1ccc(C(=O)Cn2nnc(-c3ccccc3)n2)cc1
  -9%	-5%
- O=C1CC2(CCN(C(=O)COc3ccc(F)cc3)CC2)Oc2ccccc21
  -5%	-12%
- Cc1cc(=O)oc2cc(OCC(=O)OCC(=O)Nc3ccc4ccccc4c3)ccc12
  0%	-14%
- O=[N+]([O-])c1ccc(OC(F)F)c(/C=N/n2cnnc2)c1
  -3%	-11%
- N#Cc1cccnc1N1CCN(C(=O)c2ccccc2)CC1
  i	-19%
- CN1CCN(NC(=O)c2cccs2)CC1
  -18%	-8%
- COc1ccc(-c2c3c(=O)n(C)c(=O)n(C)c3cn2NC(C)=O)cc1
  -25%	-5%
- O=C(COc1ccc(/C=N/NC(=O)c2ccccc2)cc1)Nc1ccc([N+](=O)[O-])cc1
  -6%	-1%
- CCN1CCN(C(CNS(=O)(=O)c2ccc(OC)cc2)c2cccnc2)CC1 (stereo not given)
  21%	-6%
- OC1CCCCC1N1CCC(c2ccccc2)CC1 (stereo not given)
  -18%	-14%&-11%
- CC(NC(=O)C(C)N1C(=O)c2ccccc2C1=O)c1ccccc1 (stereo not given)
  i	-11%
- CCc1cccc(NC(=O)C2CCCN(S(=O)(=O)c3c(C)[nH]c(=O)[nH]c3=O)C2)c1 (stereo not given)
  .	-14%
- O=C(Cn1cc(C(=O)C2CC2)c2ccccc21)Nc1ccc(F)cc1
  1%	0%
- CC1C(=O)N2CCCc3cc(NC(=O)COc4ccccc4)cc1c32 (stereo not given)
  -27%	-16%
- CC(C)c1csc(CN2CCC(n3nccc3NC(=O)Cc3ccccc3)CC2)n1
  -6%	-8%
- CC1(C(=O)Nc2ccc3[nH]ncc3c2)CCN1C(=O)C/C=C/c1ccccc1 (stereo not given)
  0%	-9%
- CCOC(=O)c1cccc(NC(=O)c2cc(CN3CCCC3)on2)c1
  -1%	2%
- O/N=C/c1cc(Cl)ccc1OCc1ccccc1Cl
  -23%	-20%
- Nc1cc(=O)[nH]c(SCC(=O)Nc2ccccc2Sc2ccccc2)n1
  -4%	-24%
- COC(=O)c1cc(S(=O)(=O)Nc2ccc(C)c(F)c2)c[nH]1
  -1%	-8%
- CC1(C)N([O-])[N+](=O)C1(C)Br (stereo not given)
  -25%	-28%
- COC(=O)C1=C(c2ccc(OC)c(OC)c2)C[C@@H]2CC[C@H]1N2C(=O)NCCOc1ccccc1Cl
  ?	-19%
- CSCCC(NS(=O)(=O)c1ccc(C)cc1)C(=O)Nc1ccc(C)cn1 (stereo not given)
  -13%	-12%
- COc1ccc(CNS(=O)(=O)c2c(C(=O)N3CCCCCC3)c(C)n(C)c2C)cc1
  i	-1%

Of the compounds above, four contain a furan ring, fused or not.
Values in the order – VACV mCherry inh	VACV Venus inh
- Cc1c(C(=O)NCc2c(F)cc(F)cc2F)oc2ccc(S(=O)(=O)N3CCOCC3)cc12
  -17%	-8%
- COc1ccc(N2CCN(C(=O)C3Cc4ccccc4CN3C(=O)c3ccco3)CC2)cc1 (stereo not given)
  i	-13%
- O=Cc1ccc(-c2cccc(C(=O)O)c2)o1
  i	-7%
- O=c1c(-c2ccco2)[n+]([O-])c2ccccc2n1OCc1ccccc1[N+](=O)[O-]
  -7%	-2%

An excerpt of these results, as a markdown table:
| canonical_smiles | VACV mCherry inh | VACV Venus inh |
| --- | --- | --- |
| N#Cc1cccnc1N1CCN(C(=O)c2ccccc2)CC1 | i | -19% |
| CN1CCN(NC(=O)c2cccs2)CC1 | -18% | -8% |
| COc1ccc(-c2c3c(=O)n(C)c(=O)n(C)c3cn2NC(C)=O)cc1 | -25% | -5% |

Other results follow.
Values in the order – VACV mCherry inh	VACV Venus inh
- Cc1ccccc1OCC(O)COc1ccccc1C
  i	-7%
- CN(C)S(=O)(=O)n1cc(/C=C(\NC(=O)c2ccccc2)C(=O)NCCN2CCOCC2)c2ccccc21
  -10%[7.34 µM]	0%[7.34 µM]
- Cc1cc2c(cc1S(=O)(=O)NCc1ccccc1)NC(=O)CO2
  -24%	-4%
- COc1cccc(OC)c1C(=O)NC(=S)N1CCCCC1c1cccnc1 (stereo not given)
  9%	12%
- CC(=O)c1c(C)[nH]c(C(=O)OCC(=O)N(Cc2ccccc2)C(C)(C)C)c1C
  -8%	-7%
- COCCN1C(=O)C(=O)/C(=C(/O)c2ccc(S(=O)(=O)N3CCOCC3)cc2)C1c1cccc(Cl)c1 (stereo not given)
  i	4%
- CCN(CC(=O)Nc1cc(Cl)ccc1C)C(=O)c1ccc(=O)n(Cc2ccccc2)n1
  -14%	-5%
- COc1ccc(OC)c(S(=O)(=O)NCC(c2ccc(F)cc2)N2CCN(C)CC2)c1 (stereo not given)
  i	-9%
- CC1=NN(c2ccc(C)cc2)C(=O)/C1=C\C=C\c1ccccc1
  -22%	0%
- CCOC(=O)N1CCN(C(=O)CN(c2cccc(Cl)c2)S(=O)(=O)c2ccccc2)CC1
  3%	1%
- COc1ccc(C=O)cc1O
  i	-3%
- Cc1ccc(S(=O)(=O)CCSc2nc(C)cc(C(F)(F)F)c2C#N)cc1
  .	2.2µM*
- CC1CC1C(=O)OCC(=O)NCc1ccccc1 (stereo not given)
  -11%	2%
- CN(C)c1nc2cc(Cl)ccc2cc1CN(Cc1ccc2c(c1)OCO2)C(=O)c1ccoc1
  -9%	-2%
- OC12CCCCC1C(c1ccc3c(c1)OCO3)N(Cc1cccc(F)c1)CC2 (stereo not given)
  .	-19%
- COC(=O)C1=C(c2ccc(C(C)=O)cc2)C[C@@H]2CC[C@H]1N2C(=O)N1CCC(C)CC1
  -8%	-29%
- O=c1[nH]c(COc2ccccc2)nc2ccccc12
  i	?
- CCN(C(=O)CN1C(=S)NC(C)(C)CC1C)c1ccc(C)c(C)c1 (stereo not given)
  -15%	-8%
- CC1CCN(C(=O)COC(=O)c2cc(S(=O)(=O)N3CCOCC3)ccc2Cl)CC1
  -24%	2%
- CN1CCN(C(=S)Nc2ccc(Cl)c(Cl)c2)CC1
  i	-7%

Screens deposited in PubChem BioAssay by National Center for Advancing Translational Sciences (NCATS).
